Bioassay records: PubChem, ICCB-Longwood Screening Facility, Harvard Medical School
S aureus helic: S. aureus DNA helicase inhibition; purified S. aureus helicase, fluorescence unwinding assay; about half of the hits fall short of the stated cut; inhibition, %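 (tested at about 80 µM)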; hit rate 0.05% among 120,000;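 active = both duplicates at 50% or more, or one of them with a favoured structure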;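 also: 0% = mean of negative control wells and 100% = mean of positive control wells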
MgrA-DNA mod: alters Staphylococcus aureus MgrA binding to DNA; fluorescence polarization; inhibition, %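 (about 10 µg/mL by stock and volumes)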; hit rate 0.13% among 84,000; AID 602314;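 active = above 50% in either of two replicates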;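 also: 0% = protein plus DNA without compound and 100% = DNA alone without protein; higher means less MgrA bound to DNA so lower polarization; one replicate is shown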
Numbers without * were called inactive; x = no result given; & = joins results of further samples.

SMILES | S aureus helic | MgrA-DNA mod
Fc1cccc(Cl)c1CSc1nnc(-n2cccc2)s1 | x | -0.2
Cc1cc(/C=C/C(=O)N2CCCC2c2cccs2)c(C)n1Cc1ccco1 (stereo not drawn) | -1 | x
Cc1cc(=O)[nH]c(SC(C(=O)O)c2ccccc2)n1 (stereo not drawn) | 3&4 | -1.9
O=C(C1CCN(c2nccc(C(F)(F)F)n2)CC1)N1CCSCC1 | x | -2.6
COc1ccc(C2(C(=O)NCc3nnc(SC)n3C(C)C)CC2)cc1 | 19 | -0.6
Cc1ccn2cc(C(=O)OCCOc3ccccc3Cl)nc2c1 | -16 | x
CC(C)c1n[nH]c(=S)n1N | -5 | x
O=C(Cn1cnc2c(oc3ccccc32)c1=O)N1CCCc2ccccc21 | 3 | -0.6
CCCCNC(=O)c1cn(CC(C)C)c(=O)c2cc(OC)c(OC)cc12 | -27 | x
O=C1CC(c2ccccc2)Oc2cc(Cl)ccc21 (stereo not drawn) | x | -2.1
CCOC(=O)C1=C(O)/C(=C/c2ccc(C)o2)SC1=NC(=O)c1ccccc1 | -5 | 14
CCCCCc1ccc(-c2ccc(C#N)cc2)nc1 | -7 | x
CN(C)c1ccc(C(Nc2nccs2)c2ccc3cccnc3c2O)cc1 (stereo not drawn) | -3 | x
COc1cc2c(cc1OC)CN(c1ccc3ccccc3n1)CC2 | 0 | x
CCOC(=O)CSc1nc(NC#N)nc(N(CC)CC)n1 | 11 | 0.7
CCOC(=O)c1c(C)nn(-c2ncccc2NC(=O)NC(C)C)c1C | -18 | x
O=c1c2ccccc2ncn1CN1CCN(Cc2ccccc2)CC1 | -1 | x
N#CC(c1ccccn1)c1nc(=O)c2ccccc2s1 (stereo not drawn) | -11 | -1.0
CCOC(=O)c1ccc(N=Cc2ccc(OC(=O)c3ccco3)cc2)cc1 | -11 | x
Cn1c(=O)c2c(nc(NCc3ccc4c(c3)OCO4)n2Cc2ccc(Cl)cc2)n(C)c1=O | x | 1.4
O=C(CCN1CCCCC1)N/N=C/c1ccccc1OC(F)F | -23 | x
O=C(CN1CCN(c2ccc(O)cc2)CC1)NC1CCCc2ccccc21 (stereo not drawn) | -12 | x
Cc1nn(-c2ccccc2)c(C)c1-c1nc(-c2ccccc2)no1 | x | -0.7
CCN1c2ccccc2NC2N=C(OC)C(c3ccccc3)C21 (stereo not drawn) | 0 | -0.8
CC1CCC(C)(C)CN(c2ccc(C(F)(F)F)cc2[N+](=O)[O-])C1 (stereo not drawn) | x | 0.5
NC(=O)c1cnc(C(F)(F)F)cc1C(F)(F)F | x | -2.3
COC(=O)c1cccc(NS(=O)(=O)c2ccc(Cl)c(Cl)c2)c1 | x | -0.8
CC1Cc2ccccc2N1C(=O)c1ccc2c(c1)OCO2 (stereo not drawn) | 6 | 0.6
CC(C)(C)c1ccc(C(=O)N2CCC(c3nc(-c4ccc(Cl)cc4)no3)CC2)cc1 | x | -1.1
Cc1cccc(-c2nnc(C3CCN(S(=O)(=O)Cc4ccccc4)CC3)o2)c1 | 1 | 9.8

Of the compounds above, twelve contain sulfur:
SMILES | S aureus helic | MgrA-DNA mod
Fc1cccc(Cl)c1CSc1nnc(-n2cccc2)s1 | x | -0.2
Cc1cc(/C=C/C(=O)N2CCCC2c2cccs2)c(C)n1Cc1ccco1 (stereo not drawn) | -1 | x
Cc1cc(=O)[nH]c(SC(C(=O)O)c2ccccc2)n1 (stereo not drawn) | 3&4 | -1.9
O=C(C1CCN(c2nccc(C(F)(F)F)n2)CC1)N1CCSCC1 | x | -2.6
COc1ccc(C2(C(=O)NCc3nnc(SC)n3C(C)C)CC2)cc1 | 19 | -0.6
CC(C)c1n[nH]c(=S)n1N | -5 | x
CCOC(=O)C1=C(O)/C(=C/c2ccc(C)o2)SC1=NC(=O)c1ccccc1 | -5 | 14
CN(C)c1ccc(C(Nc2nccs2)c2ccc3cccnc3c2O)cc1 (stereo not drawn) | -3 | x
CCOC(=O)CSc1nc(NC#N)nc(N(CC)CC)n1 | 11 | 0.7
N#CC(c1ccccn1)c1nc(=O)c2ccccc2s1 (stereo not drawn) | -11 | -1.0
COC(=O)c1cccc(NS(=O)(=O)c2ccc(Cl)c(Cl)c2)c1 | x | -0.8
Cc1cccc(-c2nnc(C3CCN(S(=O)(=O)Cc4ccccc4)CC3)o2)c1 | 1 | 9.8

Fetched one by one from the entries so far, three records:
SMILES | S aureus helic | MgrA-DNA mod
Cn1c(=O)c2c(nc(NCc3ccc4c(c3)OCO4)n2Cc2ccc(Cl)cc2)n(C)c1=O | x | 1.4
N#CC(c1ccccn1)c1nc(=O)c2ccccc2s1 (stereo not drawn) | -11 | -1.0
COC(=O)c1cccc(NS(=O)(=O)c2ccc(Cl)c(Cl)c2)c1 | x | -0.8

Next section:
SMILES | S aureus helic | MgrA-DNA mod
Cc1ccc(C)c(Nc2cn[nH]c(=O)c2Cl)c1 | -11 | x
Cc1[nH]n(-c2ccccc2)c(=S)c1C=NC(C)Cc1ccccc1 (stereo not drawn) | 1 | 1.9
CCOc1ccc(S(=O)(=O)N/N=C2/C=C(C)CC2)cc1 | 3 | x
Cc1cc(=O)cc(C)n1-c1ccc(Cl)cc1Cl | -12 | -1.8
COc1cc(C(=O)Nc2cccc(-c3nnc(-c4ccco4)o3)c2)ccc1OC(C)=O | 12 | x
Cc1ccc(-c2cn3nc(C(C)C)sc3n2)cc1C | 10 | x
CC(=O)/C(N=Nc1ccc(Br)c(Cl)c1)=C(\C)O | x | 1.8
CC(NC(=O)c1ccc(S(=O)(=O)N2CCCCC2)cc1)C(c1ccccc1)N1CCOCC1 (stereo not drawn) | 11 | x
Nc1c(Br)cc(Br)cc1CNC1CCC(O)CC1 (stereo not drawn) | x | -0.7&3.2
O=S(=O)(NC1CCN(Cc2ccccc2)CC1)c1ccc(I)cc1 | x | -0.4
NC(=O)N/N=C/c1ccc(-c2ccc(SC(F)F)cc2)o1 | -4 | x
Cc1c2cnn(-c3ccccc3)c(=O)c2c(C)n1CCCC(=O)NCCC1=CCCCC1 | 12 | x
Oc1ccc2ccccc2c1C=Nc1c(F)c(F)c(F)c(F)c1F | -18 | -2.0
CCC(=O)Nc1nnc(SCC(=O)N2CCCc3ccccc32)s1 | 14 | x
C/C(N)=C(/C#N)C(=O)CN1C(=O)NC(C)(c2ccc3c(c2)OCO3)C1=O (stereo not drawn) | 25 | x
O=C(O)c1cc2c([nH]c1=O)CCC2 | -5 | -1.8
C=CCN(CC=C)S(=O)(=O)c1cc(Cl)ccc1Cl | -21 | x
COC(=O)c1cc2c(ccn2-c2ccc(F)cc2)n1Cc1ccccc1 | 6 | 3.8
Cc1ccc(-c2nc(C#N)c(N3CCC(C(N)=O)CC3)o2)cc1 | 24 | x
CCC(=O)Nc1ccc2c(c1)nc1n2CCN(Cc2ccccc2)C1 | 7 | -1.9
O=C(O)CN1C(=O)/C(=C\c2cc([N+](=O)[O-])cc(Br)c2O)SC1=S | x | 26
COC(=O)c1sc(C)cc1OC(=O)c1ccc(OC)cc1 | -12 | x
O=C(OC1CSc2nc3ccccc3n2C1)c1ccccc1Cl (stereo not drawn) | -6 | 0.6
CC(C)(C)/C=N/NS(=O)(=O)c1ccc(Cl)s1 | 14 | x
C/C=C/C(=O)Nc1ccc(OC)cc1 | x | 0.2
O=C(O)CSc1n[nH]c(-c2ccc(Cl)cc2)n1 | x | -0.8
c1ccc(Nc2nc(N3CCCCC3)nc(N3CCCCC3)n2)cc1 | 6 | 4.8
COc1cc(C=Nc2ccc(C(=O)c3ccccc3)cc2)cc(OC)c1OC | 14 | -1.7
COc1cc(C=Nc2ccc(N3N=C(C)CC3=O)cc2)ccc1O | x | -1.7
O=C(O)c1ccccc1-c1ccc(-c2cc(C(=O)O)c3cc(F)ccc3n2)o1 | 6 | 25
CC(C)NC(=O)Cn1cc2c(n1)CCCC2 | 10 | -1.5
Clc1ccc(Cn2c(CN3CCCC3)nc3ccccc32)cc1 | x | -2.9
Clc1ccc(/C=N/n2cnnc2)cc1 | 13 | x
CCn1c(=O)c2c3c(sc2n2c(SCc4ccc(OC)cc4)nnc12)CCCC3 | 9 | -1.9
C=CCc1c(C)nc(-c2ccccc2)[nH]c1=O | 12 | 4.2
O=c1ccc(C(F)(F)F)cn1Cc1cc(=O)n2ccsc2n1 | -17 | x
CC1(C)CC2(CCCN(CCCN3CCCC4(CCOC(C)(C)C4)C3)C2)CCO1 (stereo not drawn) | 10 | 4.2
CC(C)(C)NC(=O)CCc1ncc(C(F)(F)F)cc1Cl | x | 1.6
CN(C)c1ccc(/C=N/n2cnnc2)cc1 | -23 | x
CC(=O)N[C@@H](CC(=O)O)C(=O)N[C@@H](CCC(=O)O)C(=O)O | x | -2.3
CCOC(=O)C1(C#N)C(N)=C(C#N)C(c2ccccc2)=CC1c1ccccc1 (stereo not drawn) | -3 | 2.8
Cn1c(C/C(N)=N/O)nc2ccccc21 | 3 | x
CCCC1=NN(c2ccc(C(=O)OCC)cc2)C(=O)C1 | 13 | -0.1
CCC(=O)N1N=C(c2c(-c3ccccc3)c3cc(Br)ccc3[nH]c2=O)CC1c1cccc([N+](=O)[O-])c1 (stereo not drawn) | x | -0.4
CC(C)c1cccc(C(C)C)c1NC(=O)/C=C/c1ccco1 | -23 | 3.5
Cc1sc2nc(C(C)C)oc(=O)c2c1C | x | 0.7
Cc1ccc(Nc2nc(-c3ccc(S(=O)(=O)N4CCCC4)cc3)cs2)cc1 | 1 | -2.2
CCOC(=O)N1CCCN=C1NNc1cc(F)ccc1F | 17 | x
Cc1ccc(S(=O)(=O)NC2=NCN(CCCN3CCOCC3)CN2)cc1 | 3 | -1.6
Cc1nn(-c2ccccc2)c(C)c1NC(=O)CN1CCCCC1C (stereo not drawn) | -12 | x
O=C(Nc1c(C(=O)N(Cc2ccco2)CC2CCCO2)oc2ccccc12)C1CCCC1 (stereo not drawn) | -34 | x
Cc1ccc(-c2n[nH]c(=O)c3ccccc23)cc1S(=O)(=O)N1CCN(CCO)CC1 | -14 | 1.9
CN(C)CCOC(=O)c1ccco1 | 5 | -1.3
N#CC1CCCc2c1[nH]c1ccc(Br)cc21 (stereo not drawn) | -18 | x
C/C(N)=C/C(=O)N1CCCCC1 | 10 | 1.7
CN(CC(=O)O)Cc1cccnc1 | 1 | -6.8
Cc1nc(N2CCCN(C)CC2)c2c3c(sc2n1)CCC3 | 1 | x
N#C/C(=C\c1c(Oc2ccccc2)nc2ccccn2c1=O)C(=O)NCc1ccco1 | 32 | x
O=C(c1noc2c1CCCC2)N(C1CCCCC1)C1CCCCC1 | 6 | 3.4
COc1cc2[nH]c(=O)n(CCCCCC(=O)N3CCN(c4cccc(C)c4C)CC3)c(=O)c2cc1OC | -35 | x
New compounds follow:
SMILES | S aureus helic | MgrA-DNA mod
O=C1Nc2ccccc2C1=NC1CCN(Cc2ccccc2)CC1 | x | 1.2
NS(=O)(=O)c1ccc(-c2ccc(/C=N/NC(=O)COc3ccc(F)cc3)o2)cc1 | 9 | x
N#Cc1c(N2CCCC2)nc(N)c2c(N)nc(N3CCCC3)cc12 | 30 | x
Cc1cc(N=Cc2c[nH]c3ccccc23)ccc1Br | 20 | 0.0
CCN(CC)S(=O)(=O)c1ccc(O)c(C(=O)O)c1 | -5 | x
COc1ccc(-c2noc(C3CCCN(C(=O)c4ccccc4)C3)n2)cc1 (stereo not drawn) | 5 | -5.3
O=c1cc(-c2ccccc2)c2ccc3c(c2o1)CN(Cc1ccc2c(c1)OCO2)CO3 | -9 | x
Cc1cccc(-c2nc(NCCCN3CCOCC3)c3ccccc3n2)c1 | 2 | 0.9
CN(C)c1ccncc1C(=O)Nc1cc(Cl)cc(Cl)c1 | x | -2.8
Cc1cc(=O)n(-c2nc(-c3ccccc3)cs2)[nH]1 | x | 6.8
Cc1ccc(SCC(=O)Nc2ccc(I)cn2)cc1 | -23 | x
O=C(ON1C(=O)CCC1=O)c1ccccc1Cl | x | -1.9
CCCCN(C)C(=O)c1c[nH]c2ccc(S(=O)(=O)Nc3cccc(OC)c3)cc2c1=O | 17 | 4.2
CN(C)c1ccc(C(=O)OCC(=O)C(C)(C)C)cc1 | 3 | x
Cc1nn(-c2ccccc2)nc1CNC(=O)C1CC1 | x | 1.0
COCCNC(=O)c1ccccc1NS(=O)(=O)c1ccc(F)cc1 | 15 | -0.1
Cc1ccc(NC(=C(C#N)C#N)c2ccccc2)cc1 | 0 | x
O=C(Nc1ccncc1)C1(c2ccccc2)CCCC1 | -3 | 0.4
CCOC(=O)N1CCN(C(=O)C2CC(=O)N(c3ccc(OC)cc3)C2c2ccc(OC)cc2)CC1 (stereo not drawn) | -6 | 1.1
O=C(NCCO)C1(c2ccc(Cl)cc2)CCCC1 | -7 | x
COc1ccc(OCCCC(=O)N2CCCC(C(N)=O)C2)cc1 (stereo not drawn) | -8 | x
Cn1nccc1NS(=O)(=O)c1cccc(Cl)c1 | x | 1.7
COc1cc(OCc2ccccc2)ccc1CN1CCN(C)CC1 | x | -0.1
O=C1CC(c2ccccc2)c2cc3c(cc2N1)OCO3 (stereo not drawn) | 16 | x
COC(=O)c1cc2oc3ccccc3c2n1CC(=O)Nc1ccc(C(C)C)cc1 | 21 | x
CC(=O)NCC(=O)NC1CCC(C)CC1 (stereo not drawn) | 6 | x
OC1CCN(Cc2cccc(C(F)(F)F)c2)CC1 | 13 | -4.6
O=C(N/N=C1\C/C(=N\NC(=O)c2ccncc2)c2ccccc21)c1ccncc1 | -11 | x
Cc1ccnc(NC(=O)NCCCSc2nnnn2-c2ccccc2)n1 | -1 | x
Fc1ccc(NC(=S)NC23CN4CN(CN(C4)C2)C3)cc1 | 9 | 0.1
COc1ccc(-c2csc(NC(=O)/C=C/c3cccs3)n2)c(OC)c1 | -20 | x
CC(C)C(=O)Nc1c(C(=O)c2ccccc2)oc2ccccc12 | 6 | x
CC(=O)c1ccc2c(c1)OCCO2 | x | -1.4
N#Cc1cc2c(cc1C#N)Oc1ccccc1O2 | -6 | -0.1
CC(C)C(=O)Nc1ccc(Br)cc1 | 4 | -1.3
CCOC(=O)N1CCN(C(=O)c2ccc(CNS(=O)(=O)c3ccc(NC(C)=O)cc3)cc2)CC1 | 0 | -0.6
COc1cc(CNCc2cccnc2)ccc1OCC(N)=O | 17 | -1.3

This is a subset (hit frequency here may not be typical).
